HCMV UL50-53 inh = disrupts HCMV UL50-UL53 complex binding. 0.15% of 190,000 active. inhibition, % (test concentration not listed). HTRF UL50-UL53 interaction, normalized percent inhibition;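 active = both replicates at 50% or more, plus weaker picks with an unusually low signal ratio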;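 also: stock transfer was 100 nL into about 20 µL; 0% = negative control wells and 100% = wells with untagged competitor protein; inactives centre near -12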
Starred values were filed as active, the others as inactive; & = joins results of further samples. A portion of the library; the hit share may differ from the screen's.

SMILES | HCMV UL50-53 inh
O=S(=O)(NN1CCOCC1)c1ccc(Cl)s1 | -5
Ic1cccc(CSc2nnc(-c3ccncc3)o2)c1 | -32&-15&-17&-12&-14
Nc1n[nH]c(N)c1N=Nc1ccc(O)cc1 | -42
c1ccc(-n2nnnc2-c2nc3ccccc3[nH]2)cc1 | -2
Cc1c(C(=O)NN2CCOCC2)nn(-c2ccc(Cl)cc2Cl)c1-c1ccc(I)cc1 | -12
CCn1cc(-c2cc(C(=O)N3CCCCCC3)c3cccc(C)c3n2)cn1 | 3
Cc1ccc(S(=O)(=O)Nc2c(-c3ccccc3)c3cc(C)ccc3[nH]c2=O)cc1 | 4
CN1CCCC(CC2c3ccccc3Sc3ccccc32)C1 (centres undefined) | -16
O=S(=O)(NC1CCCCC1Nc1ccccc1)c1ccccc1 (centres undefined) | -10
C[N+](C)(C)CC(O)CC(=O)O (centres undefined) | 9
Cc1cc(NC(=O)Cn2ncc3cc(-c4ccc(F)c(F)c4)ccc32)n(C)n1 | 1&1
CCc1c(OCCCCCC(C)(C)c2nn[nH]n2)cc(O)cc1C(C)=O | -17&-17
COc1ccc(CNC(=O)c2c[nH]c3ccccc23)cc1 | -5
Cn1cc(-c2ccccc2OC2(C(=O)O)CCSCC2)cn1 | -3
Cc1ccc(S(=O)(=O)NC(CC(=O)O)c2ccc(F)cc2)cc1 (centres undefined) | -22
O=C(COc1ccc(Cl)cc1)Nc1ccccc1C(=O)O | -10
Cc1ccc(CCC(=O)Nc2ccc(C(=O)O)cc2)o1 | -3
CCCCCCCCCCCCCCCC(=O)C1=C(O)C(CO)OC1=O (centres undefined) | -65
Cn1c(-c2ccc3c(c2)OCO3)cc(=O)c2ccccc21 | -22
CC(C)CC(=O)Nc1c(-c2ccc(F)cc2)nc2ccccn12 | -21
COc1ccc(CC(=O)Nc2nnc(SCC(=O)c3ccccc3)s2)cc1 | -9
CCCn1cc(SCC(=O)Nc2cc(C)on2)c2ccccc21 | 0
COc1cccc(C(=O)Nc2c3c(nn2-c2ccc(C)cc2)CS(=O)C3)c1 (centres undefined) | -7
CC(C)C(CO)Nc1nc(Nc2cccc(Cl)c2)c2ncn(C(C)C)c2n1 (centres undefined) | -18
NC(=O)Nc1sc(-c2ccccc2)cc1C(N)=O | -46&1
CC1(C)COC(=O)C1OC(=O)c1ccccc1C(=O)O (centres undefined) | 4
CC(C)[C@H](CO)Nc1nc(Nc2cccc(Cl)c2)c2ncn(C(C)C)c2n1 | -2
Cc1ccc(-n2ncc3c(NC4CCCCC4)ncnc32)c(C)c1 | 4
COC(=O)c1ccc(Oc2coc3cc(O)ccc3c2=O)cc1 | -3
Oc1ccc(CN2CCN(c3ccc(F)cc3)CC2)c2cccnc12 | 1
C=C[C@@]1(C)CC(OC(=O)CSC2C[C@H]3CC[C@@H](C2)N3C)[C@]2(C)C(C)CC[C@]3(CCC(=O)[C@H]32)C(C)C1O (some centres undefined) | 4
Cn1cccc1Cc1nnc(SCC(N)=O)n1C | 10
COc1ccc(Br)cc1S(=O)(=O)NCc1ccccc1 | 0
O=C(O)Cc1coc2ccc3ccccc3c12 | -23
O=S1(=O)NC(=NCc2ccccc2)c2ccccc21 | 3
Cc1c(C(N)=O)cc([N+](=O)[O-])cc1[N+](=O)[O-] | -125
O=C(NC1C=CS(=O)(=O)C1)c1ccccc1 (centres undefined) | 7
CN1CCN(C2=Cc3ccccc3Oc3ccc(Cl)cc32)CC1 | -16
Cc1cc2nc3[nH]c(=O)[nH]c(=O)c3nc2cc1C | -112
O=C(O)CSc1ccc2ccccc2c1Br | -53
CCN1CCN(Cc2ccc(NC(=O)c3ccc(C)c(NC(=O)c4c[nH]c5cc(C(F)(F)F)ccc5c4=O)c3)cc2C(F)(F)F)CC1 | -9
CC1CCCN1C(=O)c1cc(-c2cnn(C(C)C)c2)nc2cc(F)ccc12 (centres undefined) | -6
Cc1cc(C)n2cc(CSc3nc4ccccc4[nH]3)nc2n1 | -8
CC(C)n1nnc2cc(C(=O)O)ccc21 | 6
N#Cc1ccc(-c2csc(N)n2)cc1 | -21
CC(C)(C)NC(=O)CSC1=C(C#N)C(c2ccco2)C2=C(CCCC2=O)N1 (centres undefined) | -6
CCC(C)C(=O)OC1CCC=C2C=CC(C)C(CCC3CC(O)CC(=O)O3)[C@H]21 (some centres undefined) | -15
CCCOc1ccccc1N1C(=O)CC(N(O)c2ccccc2)C1=O (centres undefined) | -26
CCN1CCC(N2CCCC(CN3CCCC3)C2)CC1 (centres undefined) | -6
COC(C(=O)O)C(=O)Nc1cc(Cl)cc(Cl)c1 (centres undefined) | -4
CNC(=O)c1cc(Oc2ccc(NC(=O)Nc3ccc(Cl)c(C(F)(F)F)c3)cc2)ccn1 | 1&-2&-14&-8&-11&-4
C=CC1=C(C(=O)O)N2C(=O)[C@@H](NC(=O)/C(=N\OCC(=O)O)c3csc(N)n3)[C@H]2SC1 | -14
COC1C=CO[C@@]2(C)Oc3c(C)c(O)c4c(O)c(c5c(nc6cc(C)ccn65)c4c3C2=O)NC(=O)C(C)=CC=CC(C)C(O)C(C)C(O)C(C)C(OC(C)=O)C1C (some centres undefined) | -96
CCCCCCCN(CC)CCCC(O)c1ccc(NS(C)(=O)=O)cc1 (centres undefined) | 0
O=C(NCCO)c1ccc(CSc2nc3ccccc3c(=O)[nH]2)cc1 | -10
O=[N+]([O-])c1ccc(O)c2ncccc12 | -112
CCCCC[C@H](O)/C=C/[C@H]1CCC(=O)[C@@H]1CCCCCCC(=O)O | -11&-11
CCSC1=C(C#N)C(c2cccc(Cl)c2Cl)CC(=O)N1 (centres undefined) | -7
Cc1cc(Cl)cc2c(=O)n(C(C)Cn3cccn3)cnc12 (centres undefined) | -11
Cc1ccn2c(NC(=O)C3CC3)c(-c3ccccc3)nc2c1 | -5
New compounds follow
SMILES | HCMV UL50-53 inh
O=C(NCCCN1CCCCCC1)C(c1ccccc1)C1CCCCC1 (centres undefined) | -6
Cc1ccc(N=Cc2c(O)cc(C)oc2=O)cc1 | -9
C=CCc1ccccc1OCC(O)Cn1c(C)nc2ccccc21 (centres undefined) | 4
COc1ccc(OC)c(/C=N/c2sc3c(c2C#N)CCC3)c1 | -6
CCOc1ccc(-n2nnnc2SCC(=O)c2c(C)cc(C)cc2C)cc1 | -15
O=c1c(O)c(-c2ccc(O)c(O)c2)oc2cc(O)c(O)c(O)c12 | -55
COCCCN1C(=O)N(Cc2ccccc2)C(=O)C12CCN(Cc1ccc(-c3ccco3)cc1)CC2 | 9
N#Cc1ccc2c(c1)N(Cc1c(F)cccc1Cl)C(=O)C1CCCN21 (centres undefined) | -15
CC1(C)S[C@H]2C(NC(=O)C(NC(=O)N3CCN(S(C)(=O)=O)C3=O)c3ccccc3)C(=O)N2C1C(=O)O (some centres undefined) | 0
CC1CC[C@H]2C(C)C(O)O[C@H]3O[C@@]4(C)CC[C@@H]1[C@]32OO4 (some centres undefined) | 11
O=c1[nH]cnc2c1cnn2-c1ccc2ccccc2c1 | -16
Cc1cc2cc(CNS(=O)(=O)N(C)C)ccc2[nH]1 | -11
COC(=O)c1ccc2nc(NC(=O)CCOc3ccccc3)sc2c1 | -5
Cc1cc(-c2ccc(S(=O)(=O)Nc3ccc(-c4ccno4)cc3)cc2)on1 | -6
Cc1cc(C)c(N(Cc2ccccc2)S(=O)(=O)c2ccc(OCCNC(=O)c3cc4ccccc4o3)cc2)c(C(=O)NO)c1 | -4
Cc1[nH]c2ccccc2c1C(c1ccccn1)N1CCC(C(N)=O)CC1 (centres undefined) | -5
COc1cc(Br)c(S(=O)(=O)Nc2ccc(Cl)c(O[C@@H]3CCN(C)C3)c2)cc1OC | 7
Sc1sc(-c2ccccc2)cc1C=Nc1ccccc1 | -30
O=C(Nc1ccc2[nH]c3c(c2c1)CCCC3)c1ccco1 | -12
COC(=O)CC1C(=O)NCCN1C(=O)c1sc2ccccc2c1Cl (centres undefined) | -2
COC(=O)c1ccc(NS(=O)(=O)/C=C/c2ccccc2)cc1 | 9
CCCC/C=C/C=C/C=C\CCCCCCCC(=O)OC | -17&-17
CCC(C)C(=O)OC1CC(O)C=C2C=CC(C)C(CCC(O)CC(O)CC(=O)O)[C@H]21 (some centres undefined) | -23
COc1ccc(-c2cnc3c(-c4ccsc4)cnn3c2)cc1 | -7
COc1ccc(S(=O)(=O)NCc2ccccn2)cc1 | -3
c1cc(CN2CCN3CCCC3C2)n(-c2nccs2)c1 (centres undefined) | -27&-27
N#CC1=C(SCC(=O)Nc2ccccc2)NC(=O)CC1c1cccs1 (centres undefined) | 2
COc1cc(F)c(C(=O)N(C)CC2CCCCN2C)c(F)c1 (centres undefined) | 13
CC1CCN(S(=O)(=O)c2ccc(-c3csc(-c4cccnc4)n3)cc2)CC1 | -2
NCCc1ccn[nH]1 | -9
CCn1cc(C(=O)O)c(=O)c2cnc(N3CCCC3)nc21 | -18
Clc1ccc(C2C=C(c3cccs3)Nc3ncnn32)cc1 (centres undefined) | -23
O=C(CSc1ncnc2c1oc1ccccc12)N1CCCCC1 | 0
O=C(/C=C/c1ccc(O)c(O)c1)O[C@@H]1C[C@](O)(C(=O)O)C[C@@H](O)[C@H]1O | -18&-18&-40
OCCCc1cn(C2CCN(c3nn4cnnc4c4ccccc34)CC2)nn1 | 25&25
Cc1cccc2c(C(=O)N(C)C(C)C)cc(-c3cnn(C(C)(C)C)c3)nc12 | -20
Cc1ccc(N(Sc2ccc(Cl)cc2)C2C=CS(=O)(=O)C2)cc1 (centres undefined) | 5
O=c1cc(-c2ccncc2)nc(-c2cccc(CN3CCCC(CO)C3)c2)[nH]1 (centres undefined) | -20&-20
CCN(CC)C(=O)/C=C/c1ccc(-c2cc(Cl)ccc2Cl)o1 | 0
C=C[C@@]1(C)CC(=O)[C@@]2(O)[C@@]3(C)C(O)CCC(C)(C)[C@@H]3C(O)C(OC(C)=O)[C@@]2(C)O1 (some centres undefined) | 1
CCc1cc2c(=O)c(-c3cscn3)coc2cc1OC(C)=O | -24
CCCCC(C)(C)[C@H](O)/C=C/[C@H]1C(=O)C[C@H](O)[C@@H]1C/C=C\CCCC(=O)O | -2&-2
COc1ncnc2sc3c(c12)CCC3 | -3
Cc1[nH]c2ccccc2c1SCC(=O)Nc1ccccc1 | -5
FC(F)(F)c1ccc(-c2n[nH]c(=S)s2)nc1 | -38
CCOC(=O)C1C(=O)CC(C)(O)C(C(=O)OCC)C1c1ccc(C)cc1 (centres undefined) | -7
O=C1CC(C(=O)N2CCc3sccc3C2)c2cc(F)ccc2N1 (centres undefined) | -7
CCCCC[C@@H](O)/C=C/[C@@H]1[C@@H](C/C=C\CCCC(=O)O)[C@@H](O)C[C@H]1O | -31&-31
COC(=O)CCC1CCN(C(=O)CCC(C)C)CC1 | -23
CC(=O)Oc1ccc(-c2ccc(C(=O)Nc3ccccn3)cc2)cc1 | -13
N#Cc1c(C(F)(F)F)cc(-c2ccc(Cl)cc2)nc1SCC(=O)O | -19
CSc1nnc(CNC(=O)Cc2ccccc2)n1-c1ccc(F)cc1 | 5
COc1ccc(C2C3=C(CCCC3=O)Nc3ncnn32)cc1 (centres undefined) | -7
CC(C)c1nccn1C(=O)c1ccccc1C(=O)O | -12
CCCN1C(=O)CC(c2ccccc2)Sc2ccccc21 (centres undefined) | -20
CC(C)(C)OC(=O)NC(COc1cncc(Br)c1)Cc1c[nH]c2ccccc12 (centres undefined) | -9
CCN1CCN(C(c2cccs2)C(C)NC(=O)c2ccc3c(c2)OCO3)CC1 (centres undefined) | 2
[C-]#[N+]c1cc(-c2ccncc2)c(C)[nH]c1=O | -18
O=C(Nc1cccc(Nc2nccc(Nc3cccc(C(F)(F)F)c3)n2)c1)C1CC1 | 3&10
CC(C)Cn1c(CNC(=O)c2ccccc2)nc2ccccc21 | -9
Additional structures
SMILES | HCMV UL50-53 inh
CC(=O)Nc1ccc(-n2c(C)csc2=NC(=O)c2ccccc2)cc1 | -7
C=C(C)C(=O)Oc1ccc(N2Cc3ccccc3C2=O)cc1 | 6
Cc1oc2ccc(OC(=O)C(C)C)cc2c1C(=O)OC(C)C | -17
O=C1CN(c2ncnc3sccc23)CCN1Cc1cccc(F)c1 | 42&42
Cc1ccc(-c2n[nH]c3c2CCC3)cc1 | -10
CCOc1cccc(C2c3c(oc4cc(C)c(C)cc4c3=O)C(=O)N2CCCN(C)C)c1 (centres undefined) | -23
CC(=O)Oc1cc(C(F)(F)F)ccc1C(=O)O | -20&-20

An excerpt of these results, with tabs.
Structure	HCMV UL50-53 inh
CCCCC[C@@H](O)/C=C/[C@@H]1[C@@H](C/C=C\CCCC(=O)O)[C@@H](O)C[C@H]1O	-31&-31
COC(=O)CCC1CCN(C(=O)CCC(C)C)CC1	-23
CC(=O)Oc1ccc(-c2ccc(C(=O)Nc3ccccn3)cc2)cc1	-13
N#Cc1c(C(F)(F)F)cc(-c2ccc(Cl)cc2)nc1SCC(=O)O	-19
CSc1nnc(CNC(=O)Cc2ccccc2)n1-c1ccc(F)cc1	5
COc1ccc(C2C3=C(CCCC3=O)Nc3ncnn32)cc1 (centres undefined)	-7
CC(C)c1nccn1C(=O)c1ccccc1C(=O)O	-12
CCCN1C(=O)CC(c2ccccc2)Sc2ccccc21 (centres undefined)	-20
CC(C)(C)OC(=O)NC(COc1cncc(Br)c1)Cc1c[nH]c2ccccc12 (centres undefined)	-9
CCN1CCN(C(c2cccs2)C(C)NC(=O)c2ccc3c(c2)OCO3)CC1 (centres undefined)	2
[C-]#[N+]c1cc(-c2ccncc2)c(C)[nH]c1=O	-18
O=C(Nc1cccc(Nc2nccc(Nc3cccc(C(F)(F)F)c3)n2)c1)C1CC1	3&10
CC(C)Cn1c(CNC(=O)c2ccccc2)nc2ccccc21	-9
CC(=O)Nc1ccc(-n2c(C)csc2=NC(=O)c2ccccc2)cc1	-7
C=C(C)C(=O)Oc1ccc(N2Cc3ccccc3C2=O)cc1	6
Cc1oc2ccc(OC(=O)C(C)C)cc2c1C(=O)OC(C)C	-17
O=C1CN(c2ncnc3sccc23)CCN1Cc1cccc(F)c1	42&42
Cc1ccc(-c2n[nH]c3c2CCC3)cc1	-10
CCOc1cccc(C2c3c(oc4cc(C)c(C)cc4c3=O)C(=O)N2CCCN(C)C)c1 (centres undefined)	-23
CC(=O)Oc1cc(C(F)(F)F)ccc1C(=O)O	-20&-20
